Compound activity as filed in PubChem.
Calb biofilm kill – mixture kills Candida albicans biofilm cells; C. albicans biofilm persisters + clotrimazole, fluorescence viability; primary screen in compound mixtures of four per well; inhibition, % at 7.6 µM; 120,000 tested, 0.02% active;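 active means inhibition above 30.3% in the primary screen of four-compound pools, then above 30% when the compound was retested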;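 further: compounds exposed to preformed 24 h biofilms for 48 h; the number belongs to the whole pool; some results filed as inactive read as strong as hits; inactives centre near 12; 0% = biofilm with clotrimazole alone and 100% = kill control; retested singly at about 60 µM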
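Test system: C. albicans CAF4-2 wild-type biofilms; buffer or medium: RPMI/MOPS medium, pH 7.0; schedule: 24 h biofilm formation, then 48 h compound exposure, 37 °C; detection: Alamar Blue fluorescence; measure: percent inhibition of biofilm viability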
* = called active by the depositor; & = joins results of further samples.

SMILES	Calb biofilm kill
Cc1nn(C)c(C(=O)N2CCN(C(=O)c3ccco3)CC2)c1[N+](=O)[O-]	10
Cn1cc(CN2CCCC(CNC(=O)c3ccc4c(c3)OCO4)C2)c2ccccc21 (stereo not given)	7
CCn1c(SCC(=O)O)nnc1-c1ccc2[nH]c(C)c(C)c2c1	10
COc1ccc(C2CC(=O)c3sc(NC(C)=O)nc3C2)cc1 (stereo not given)	17
CCCCCCCc1n[nH]c(=S)n1Cc1ccccc1	8
O=c1c2ccccc2nc2n1CCS2(=O)=O	10
O=C(NNC(=O)c1ccncc1)Nc1cccc([N+](=O)[O-])c1	12
COc1cccc(NC(=O)N2CCN(S(C)(=O)=O)CC2)c1	9
COc1cc2nc(C3CCC3)n(NC(=O)c3ccco3)c(=O)c2cc1OC	11
CC(=O)c1ccc(NC(=O)CSc2ccsc2[N+](=O)[O-])cc1	20
CCc1ccc(CNCc2ccc(F)cc2)cc1	18
Cc1cc(C)c2c(=O)n(-c3ccccc3)[nH]c2n1	17
CCOC(=O)c1cc(-c2csc(Nc3ccccc3Cl)n2)on1	12
CCOc1ccccc1/C=N/NC(=O)c1cccc(S(=O)(=O)N2CCOCC2)c1	13
C/C(=N/NC(=O)c1sc(NS(=O)(=O)c2ccc(C)cc2)nc1C)c1sc(N)nc1C	15
O=C(c1ccccc1)c1ccc2c(c1)OCCOCCOCCO2	15
CCOc1ccc(CN(C)CC(=O)Nc2cccc(S(=O)(=O)N(C)c3ccccc3)c2)cc1	23
Cn1nc(C(=O)Nc2ccc(S(=O)(=O)NCc3ccco3)cc2)c2ccccc2c1=O	18
Cc1cc(C)c(C#N)c(SCC(=O)c2ccccc2)n1	17
O=C(O)C1CC(O)CN1C(=S)Nc1ccccc1 (stereo not given)	2
COc1ccc(CN=Nc2cc(C)nc(NS(=O)(=O)c3ccccc3Cl)n2)cc1	14
O=C(O)Cc1csc(-c2cccc(Oc3ccccc3)c2)n1	12&17
CCN(CCO)Cc1csc2ccccc12	14
CCC(=O)NC(c1cccs1)c1cc([N+](=O)[O-])c2cccnc2c1O (stereo not given)	16
CCOC(=O)C1(CCc2ccccc2)CCN(Cc2cnc(N(C)C)s2)CC1	15
CCCc1nc2c(sc3nc4c(cc32)COC(C)(C)C4)c(=O)o1	3
O=C(OCc1cccc([N+](=O)[O-])c1)c1cnccn1	16
Cc1ncoc1C(=O)N1CCc2c([nH]c3ccccc23)C1C(C)(C)C (stereo not given)	9
CC(=O)N1CCN(Cc2nc3cc(NC(=O)c4ccccc4Cl)ccc3n2C)CC1	7
COc1c(C)cc(Br)cc1C(=O)Nc1ccccc1C	13

Some values from the entries so far:
Calb biofilm kill with CCOc1ccc(CN(C)CC(=O)Nc2cccc(S(=O)(=O)N(C)c3ccccc3)c2)cc1 : 23
Calb biofilm kill with COc1cccc(NC(=O)N2CCN(S(C)(=O)=O)CC2)c1 : 9
Calb biofilm kill with CCOC(=O)C1(CCc2ccccc2)CCN(Cc2cnc(N(C)C)s2)CC1 : 15

Following part.
SMILES	Calb biofilm kill
Cc1ccc(-c2nnn(CC(=O)N(CC3CCCO3)C(C(=O)NCC3CCCO3)c3ccc(F)cc3)n2)o1 (stereo not given)	7
O=[N+]([O-])c1cc2oc3c(c2c(C=NCc2ccccc2)c1O)CCCC3	16
COc1cnc(-c2ccccn2)nc1Oc1ccc(F)cc1F	18
COC(=O)C1CC(c2c(OC)cc(OC)cc2OC)=NO1 (stereo not given)	7
Cc1cc(C)c(C(=O)OCC(=O)NCc2cccs2)c(C)c1	6
CC(=O)Nc1ccc(C(F)(F)F)cc1Cl	14
CC1CCC(C(C)C)C(OC(=O)Cn2c(-c3ccccc3)[n+](C)c3ccccc32)C1 (stereo not given)	21&16
CC1(C)C(=O)Nc2ccccc2N1C(=O)COC(=O)c1cc([N+](=O)[O-])ccc1N	10
CC(CC(=O)C1C(C)C=CCC1(C)C)NNC(N)=O (stereo not given)	3
O=C(NNS(=O)(=O)c1cccc(Cl)c1Cl)c1cccc(S(=O)(=O)N2CCOCC2)c1	10
CCC(C)(C)NC(=O)C(c1ccc(OC)cc1)N(Cc1ccco1)C(=O)CCC(=O)Nc1cc(C)on1 (stereo not given)	13
O=C(c1ccc(Cl)c(Cl)c1)N1CCC(=O)N(C(COCc2ccccc2)Cc2ccccc2)CC1 (stereo not given)	16
O=C(CSc1nnnn1-c1ccccc1)Nc1ccc(N2CCOCC2)cc1	7
CCc1nc2ccccc2c(C(=O)OC2CCCCC2=O)c1C (stereo not given)	9
CC1=C(c2ccccc2)C(=S)NC(C)(C)C1	0
COc1ccc(S(=O)(=O)N2c3ccccc3OCC2C)cc1 (stereo not given)	13
CC1CCN(c2c(NCC3CCC(C(=O)NCCc4ccc(Cl)cc4)CC3)c(=O)c2=O)CC1 (stereo not given)	19
CCn1c(SCC(=O)Nc2ccc(-c3nc4ccc(C)cc4s3)cc2)nnc1-c1ccccc1	22
O=C(NNS(=O)(=O)c1ccc(F)cc1)c1sccc1-n1cccc1	8
Cc1ccccc1NC(=O)COC(=O)c1ccc(S(C)(=O)=O)c([N+](=O)[O-])c1	5
CC(Oc1cccc(Cl)c1)C(=O)NCc1ccc(S(N)(=O)=O)cc1 (stereo not given)	8
Cc1cc(/C=C2\NC(=S)N(C)C2=O)ccc1N1CCCC1	8
NS(=O)(=O)c1ccc(CCNC(=O)CN2CCN(c3ccc(F)cc3)CC2)cc1	13
COc1ccc(Nc2nnc(SCC(=O)NC(=O)Nc3ccc4c(c3)OCCO4)s2)cc1	20
Cc1cccc(N(C(=O)c2nsc(Cl)c2Cl)C(C(=O)NC2CCCC2)c2ccc(O)cc2)c1 (stereo not given)	25
CCOP(=O)(C1=C(O)C(=O)C(C(C)(C)C)=CC1=O)c1ccccc1 (stereo not given)	3
COCCNC(=O)c1c(N)n(/N=C/c2ccc(F)cc2)c2nc3ccccc3nc12	12
O=C(COc1cccnc1[N+](=O)[O-])NCCc1ccc(Cl)cc1	5
O=C(O)c1cccc(N/N=C/c2ccc(F)c(F)c2)c1	-9
CC(C)=NNC(=O)CN1C(=O)NC2NC(=O)NC21 (stereo not given)	8

An excerpt of these results, as comma-separated lines.
mol,Calb biofilm kill
O=C(NNS(=O)(=O)c1ccc(F)cc1)c1sccc1-n1cccc1,8
Cc1ccccc1NC(=O)COC(=O)c1ccc(S(C)(=O)=O)c([N+](=O)[O-])c1,5

(cont.)
SMILES	Calb biofilm kill
Cc1cc(C(F)(F)F)n2nc(C)c(-c3ccc(Cl)cc3)c2n1	4
Cc1ccc(C(=O)NC(=S)Nc2ccc(CN3CCCCC3)cc2)c(C)c1	11
Cc1ccc(CN2CCC(N3CCC(C(=O)NCC4CCCO4)CC3)CC2)o1 (stereo not given)	-6
O=c1c2ccccc2nc(SCc2ccccc2F)n1C1CCCC1	13
O=C(CCc1[nH]c2ccccc2c1Sc1ccccc1)NCCO	10
CCOC(=O)c1nn(-c2ccc(C)cc2)c(=O)c2c(N)scc12	16
CC(=O)N1CC2(c3ccccc3)CN(C(C)=O)CC(c3ccccc3)(C1)C2=O	15
Cc1ccc(CNc2ncnc(N)c2[N+](=O)[O-])cc1	13
Cc1cc(Cl)ccc1OC(C)C(=O)Nc1ccc([N+](=O)[O-])cn1 (stereo not given)	10
COc1ccccc1N1C(=O)S/C(=C\c2cc(C)n(C)c2C)C1=O	7
O=C(CSCc1ccc(Cl)cc1)NCCSCc1ccco1	29
CCOc1ccc(NC(=O)c2nn(-c3ccc(OC)cc3OC)c(=O)c3ccccc23)cc1	11
COC(=O)c1c(C)oc(C)c1S(=O)(=O)N1CCCC1	23
C=CCn1c(Cc2ccccc2)n[nH]c1=S	-3
CCNC(=S)NCc1ccco1	20
Cc1cccnc1CCNC(=O)CC1C(=O)NCCN1CC1CCCCC1 (stereo not given)	4
O=C(Nc1ccc2nc3ccccc3nc2c1)c1ccc(Br)cc1	8
NC(=O)c1ncn([C@@H]2O[C@H](CO)[C@@H](O)[C@H]2O)c1O	8
O=C(NCc1ccccn1)C1CC(c2ccccc2Cl)=NO1 (stereo not given)	30
Oc1ccc(-c2nc(=S)[nH][nH]2)cc1	6
CN(Cc1ccccc1)C(=O)c1nn2cccnc2c1Cl	34
N#Cc1c(-c2cccs2)nc(SCc2ccc(Cl)cc2)[nH]c1=O	2
Cc1cccc(S(=O)(=O)Nc2ccc(-c3cn4ccccc4n3)cc2)c1	17
O=C(O)Cc1ccc(N=Nc2c(O)c(C(=O)O)cc3ccccc23)cc1	19
O=C(COc1ccc2ccccc2c1)NNC(=O)c1cnccn1	22
COc1ccccc1CC(NC(C)=O)C(=O)NC1CCN(C(=O)c2ccc([N+](=O)[O-])cc2)CC1 (stereo not given)	17
O=C(c1cccc([N+](=O)[O-])c1)N1CCN(c2ccccn2)CC1	6
CCC(CC)C(=O)c1c[nH]c(C(=O)NCc2cccnc2)c1	2
O=C(CCc1ccccc1)N1CCN(c2ccc(F)cc2)CC1	9
CCCCCCOc1ccc(C(CC(N)=O)C(=O)O)cc1 (stereo not given)	17
O=C1Nc2ccccc2C1Cc1ccccn1 (stereo not given)	19
Cc1cc(=O)oc2cc(OCC(=O)N/N=C/c3ccccc3[N+](=O)[O-])ccc12	18
OCCCc1nc2ccccc2[nH]1	10
COC(=O)C1NN=C(C(=O)c2ccc(Br)cc2)C1c1cccc(Br)c1 (stereo not given)	7
CCOC(=O)c1cnc2c(C)cccc2c1Nc1cccc(C(=O)O)c1	8
COCCCNC(=O)/C(C#N)=c1\s/c(=C\c2ccccc2OC(F)F)c(=O)n1CCCOC	14
O=S(=O)(Nc1cccc(-c2nnco2)c1)c1ccc(F)cc1F	17
O=C(CSc1nnc(SCc2ccccc2Cl)s1)N/N=C/c1c[nH]c2ccccc12	9
CC(C)(C)NC(=O)CSc1nc(N)c(-c2ccccc2)c(=O)[nH]1	23
CC(=O)c1ccc(NC(=O)C(Cc2ccccc2)n2cccc2)cc1 (stereo not given)	8
NS(=O)(=O)c1ccc(N/N=C/c2ccccc2Br)cc1	14
O=C(O)CC(NC(=O)C(F)(F)F)c1ccc2c(c1)OCO2 (stereo not given)	8
O=C(CSc1cccc[n+]1[O-])Nc1cccc(S(=O)(=O)NC2=NCCCCC2)c1	6
O=C(/C=C/c1ccc(Cl)c([N+](=O)[O-])c1)c1ccc(O)cc1	5
COc1ccc(/C=C2\SC(=O)N(CCNC(=O)C3CC4C=CC3C4)C2=O)cc1 (stereo not given)	12
CCOC(=O)c1c(NC(=O)C2CC=CCC2C(=O)O)sc(C)c1CC (stereo not given)	10
Nc1nc(=S)c2ncn(C3CCCC3)c2[nH]1	17
COc1ccc(N=Cc2ccc(-c3ccccc3)o2)cc1	27
O=C(O)/C=C/c1cccc(OCc2ccccc2)c1	9
COc1ccc(Cc2[nH]n3c(=O)c(Cl)c(C)nc3c2-c2ccccc2)cc1	15
O=[n+]1cc(-c2ccc(Cl)cc2)n([O-])c2c1CCCCC2	7
CCOC(=O)c1c(NC(=S)NC(=O)/C=C/c2cccs2)sc(C)c1C	14
CCOC(=O)C1(Cc2cccc(F)c2)CCN(C(=O)Cn2cnnn2)CC1	27
c1ccc(-c2cc3nccc(-c4ccccn4)n3n2)cc1	20
O=C(Nc1ccc(S(=O)(=O)Nc2ncccn2)cc1)c1ccccc1NS(=O)(=O)c1ccc(Cl)cc1	18
Fc1ccc(N2CCN(Cc3cnc(N4CCOCC4)s3)CC2)cc1	24
O=C(NCCCl)Nc1cccc(Br)c1	10
O=C(CSc1nc(-c2ccc(F)cc2)cc(C(F)(F)F)n1)Nc1ccc2c(c1)OCO2	20
CC(=O)NCC1(O)CCCC(C)C1 (stereo not given)	14
C/C(=N\NC(=O)CSc1nc2ccccc2o1)c1ccc(O)cc1	0
(next part)
SMILES	Calb biofilm kill
CCC(C)[C@H](NC(=O)OC(C)(C)C)C(=O)N/N=C/c1ccc2cc(OC)ccc2n1 (stereo not given in full)	21
CC1CCN(c2ccccc2NC(=O)c2ccc(C#N)cc2F)CC1	14
Cc1nc2ccccn2c1C(=O)N/N=C/c1cc(C)n(-c2ccc(Cl)cc2)c1C	10
COc1ccccc1NC(=O)CC1S/C(=N/N=C2\CCCc3ccccc32)NC1=O (stereo not given)	10
CCOc1ccc(-c2c(=O)n(OCc3ccccc3Br)c3ccccc3[n+]2[O-])c(OCC)c1	-3
O=C(CN1N=C(c2ccccc2)CCC1=O)NCc1ccco1	13
CCOc1cc(CNc2nn[nH]n2)ccc1OCC(=O)NC(C)(C)C	20
COc1ccc(N(CC(=O)N/N=C/c2ccc3c(c2)OCO3)S(=O)(=O)c2ccccc2)cc1	7
CNC(=O)C1CC(=O)N(CCc2ccccc2)C(=Nc2ccc(OC)cc2)S1 (stereo not given)	9
CN(C)c1c(N)[nH]c2c(c1=O)c(=O)n(C)c(=O)n2C	16
Cn1ncc(N=Cc2ccccc2[N+](=O)[O-])c1C(N)=O	21

In the list so far, these contain an NH in an aromatic ring:
SMILES	Calb biofilm kill
CCn1c(SCC(=O)O)nnc1-c1ccc2[nH]c(C)c(C)c2c1	10
CCCCCCCc1n[nH]c(=S)n1Cc1ccccc1	8
Cc1cc(C)c2c(=O)n(-c3ccccc3)[nH]c2n1	17
Cc1ncoc1C(=O)N1CCc2c([nH]c3ccccc23)C1C(C)(C)C (stereo not given)	9
O=C(CCc1[nH]c2ccccc2c1Sc1ccccc1)NCCO	10
C=CCn1c(Cc2ccccc2)n[nH]c1=S	-3
Oc1ccc(-c2nc(=S)[nH][nH]2)cc1	6
N#Cc1c(-c2cccs2)nc(SCc2ccc(Cl)cc2)[nH]c1=O	2
CCC(CC)C(=O)c1c[nH]c(C(=O)NCc2cccnc2)c1	2
OCCCc1nc2ccccc2[nH]1	10
O=C(CSc1nnc(SCc2ccccc2Cl)s1)N/N=C/c1c[nH]c2ccccc12	9
CC(C)(C)NC(=O)CSc1nc(N)c(-c2ccccc2)c(=O)[nH]1	23
Nc1nc(=S)c2ncn(C3CCCC3)c2[nH]1	17
COc1ccc(Cc2[nH]n3c(=O)c(Cl)c(C)nc3c2-c2ccccc2)cc1	15
CCOc1cc(CNc2nn[nH]n2)ccc1OCC(=O)NC(C)(C)C	20
CN(C)c1c(N)[nH]c2c(c1=O)c(=O)n(C)c(=O)n2C	16

Some of the compounds tested. The share of hits here may be higher or lower than overall.
